Compound activity from PubChem.
PrP UTR inh: suppresses PrP 5' UTR mRNA reporter expression | cell-based PrP 5' UTR mRNA reporter, plate reader | inhibition, % (no concentration beside the values) | AID 488862 | 340,000 compounds, 0.35% hits;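 active = every replicate at 50% or more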;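 note: 0 = median of the neutral control wells; tested in H4 reporter cells; numbers are from one replicate; inactives centre near -14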
Mtb hypoxia inh: inhibitors of hypoxia-regulated fluorescent reporter in Mycobacterium tuberculosis. M. tuberculosis hypoxia-regulated fluorescent reporter, fluorescence. fluorescence inhibition, % (test concentration not listed). 300,000 compounds, 0.1% hits. AID 1159583;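 active = 35 to 45% if threefold the growth effect, above 45% if 1.5-fold the growth effect; inactive = the rest, general growth blockers included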;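 note: wells of about 50 µL received 100 nL stock; 0% = vehicle wells and 100% = reference inhibitor wells; whole bacteria with a GFP reporter of the hypoxia response; strong numbers were not always called active; many hits fall short of the cut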
RN4220 kill: S. aureus RN4220 growth inhibition; inhibition, % (concentration not given with the values); 330,000 compounds, 0.33% hits; AID 1259311; OD600, 16 h;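 active = z-score of -3 or lower and OD600 up to 0.18 on both plates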;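 note: plate controls were untreated cells for no effect and reference antibiotic for full effect; stock transfer was 100 nL into about 80 µL; one replicate is shown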
Autofluor counter: flagged as autofluorescent in microsphere protease counterscreen | compound autofluorescence counterscreen, microsphere flow cytometry; hits give high values | fluorescence intensity (concentration not given with the values) | 360,000 compounds, 3.1% hits;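 active = at least 3 SD above the mean of all compounds, about 16000 in these data; inconclusive = too few beads counted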;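 note: 100 nL of 1 mM stock went into each well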
Sa ugtP lethal: compounds lethal to S. aureus RN4220 ugtP deletion mutant; OD600 growth, 16 h; some inactives read as strong as hits; growth inhibition, % (no concentration beside the values); 330,000 compounds, 0.54% hits;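 active = z-score under -3 and OD600 up to 0.15 on both plates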;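 note: plate controls were untreated wells for no effect and antibiotic for full effect; wells of about 80 µL received 100 nL stock; the first replicate is given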
BJeLR viability: kills HRASV12-expressing BJeLR cells | inhibition, % (concentration not given with the values) | BJeLR (HRASV12) viability, CellTiter-Glo ATP luminescence, 48 h; reference of the scale not given here | AID 1554 | 300,000 compounds, 0.17% hits;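 active = replicate mean above 50%; inconclusive = above 50% but judged a plate artefact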;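 note: 50 nL library stock added to about 25 µL; numbers are from one replicate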
Mtb hypoxia inh growth: further read-out of Mtb hypoxia inh, marked with its call; growth inhibition, %; measured here: M. tuberculosis growth (absorbance);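 0% = vehicle and 100% = reference antibiotic; read after six days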
Numbers without * were called inactive.

What do the screens show for `CCOC(=O)c1ccc(NC(=O)c2cc(S(=O)(=O)N3CCOCC3)ccc2O)cc1`?
PrP UTR inh: -47; RN4220 kill: 15; Autofluor counter: 2685; Sa ugtP lethal: 7; BJeLR viability: 1

How did COc1cc(-c2noc(C)c2-c2ccc3[nH]ccc3c2)cc(OC)c1OC do in these assays?
PrP UTR inh: -17; Autofluor counter: 2946; BJeLR viability: 13

How did Cc1cccc(NC(=O)C2COc3ccccc3O2)n1 (stereo not given) do in these assays?
PrP UTR inh: -41; Mtb hypoxia inh: 2; RN4220 kill: -0.3; Autofluor counter: 5987; Sa ugtP lethal: 10; BJeLR viability: -4; Mtb hypoxia inh growth: 2

What do the screens show for `Cc1cc(=O)oc2cc(OC(C)C(=O)Nc3ccc(N4CCCCC4)cc3)ccc12` (stereo not given)?
PrP UTR inh: -16; Mtb hypoxia inh: 10; RN4220 kill: 2.9; Autofluor counter: 9141; Sa ugtP lethal: 4; BJeLR viability: 3; Mtb hypoxia inh growth: 0

Results for O=c1nc2n(Cc3ccccc3)c3ccccc3cc-2c(=O)[nH]1 ?
Mtb hypoxia inh: -4; RN4220 kill: 3.1; Sa ugtP lethal: -1; BJeLR viability: 16; Mtb hypoxia inh growth: 15

Results for COc1ccc(-n2ncc3c(N4CCC(C)CC4)ncnc32)cc1 ?
PrP UTR inh: -7; Mtb hypoxia inh: 23; RN4220 kill: 15; Autofluor counter: 4565; Sa ugtP lethal: 9; BJeLR viability: 6; Mtb hypoxia inh growth: 18

What do the screens show for `O=C(N/C(=C\c1ccc(F)cc1)C(=O)N1CCOCC1)c1ccccc1`?
PrP UTR inh: -2; Mtb hypoxia inh: 13; RN4220 kill: 1.5; Autofluor counter: 4611; Sa ugtP lethal: 1; BJeLR viability: -2; Mtb hypoxia inh growth: -1

Results for COc1ccc(-n2c(SCC(=O)Nc3ccccc3)nnc2-c2ccoc2C)cc1 ?
PrP UTR inh: 1; Mtb hypoxia inh: -8; RN4220 kill: 9.1; Autofluor counter: 3122; Sa ugtP lethal: 13; BJeLR viability: -2; Mtb hypoxia inh growth: -6

How did O=C(COc1ccc2c3c(c(=O)oc2c1)CCC3)N1CCN(c2ccccc2)CC1 do in these assays?
PrP UTR inh: -7; Mtb hypoxia inh: 0; RN4220 kill: -0.9; Autofluor counter: 5241; Sa ugtP lethal: -1; BJeLR viability: 6; Mtb hypoxia inh growth: 2

How did CCOC(=O)c1cc(C(C)=O)n2ccccc12 do in these assays?
PrP UTR inh: -25; Mtb hypoxia inh: 19; RN4220 kill: 5.3; Autofluor counter: 7907; Sa ugtP lethal: -7; BJeLR viability: 0; Mtb hypoxia inh growth: 3

How did COc1ccc(NS(=O)(=O)c2cccc(C(=O)NNC(=O)c3cc(C)oc3C)c2)cc1 do in these assays?
PrP UTR inh: -32; Mtb hypoxia inh: -2; RN4220 kill: 1.1; Autofluor counter: 2130; Sa ugtP lethal: 2; BJeLR viability: 0; Mtb hypoxia inh growth: -9

Results for Cn1c(=O)[nH]c(=O)c2c1[nH]c(=S)n2Cc1ccc(Cl)cc1 ?
PrP UTR inh: -14; Mtb hypoxia inh: 3; RN4220 kill: 2.6; Autofluor counter: 3770; Sa ugtP lethal: 9; BJeLR viability: -3; Mtb hypoxia inh growth: -3

Results for CC(C)OP(=O)(OC(C)C)C(NC(=O)c1cccc([N+](=O)[O-])c1)C(N)=O (stereo not given) ?
PrP UTR inh: 4; RN4220 kill: 1.8; Autofluor counter: 4658; Sa ugtP lethal: 8; BJeLR viability: 7

How did CC(C)(C)S(=O)N1Cc2cc(=O)n(Cc3ccccc3)cc2[C@@H]1CCO (stereo not given in full) do in these assays?
PrP UTR inh: 2; Mtb hypoxia inh: -10; RN4220 kill: 1.4; Autofluor counter: 3959; Sa ugtP lethal: 0; Mtb hypoxia inh growth: 2

Results for COC(=O)C1C[C@@]2(O)C(O)C(O)C(O)CC2N1Cc1ccccc1OS(=O)(=O)c1ccc(C)cc1 (stereo not given in full) ?
Mtb hypoxia inh: -7; RN4220 kill: -1.2; Sa ugtP lethal: -6; Mtb hypoxia inh growth: 1

Results for C=CCn1c(C)cc(C(=O)CSc2nc3ccccc3c(=O)[nH]2)c1C ?
PrP UTR inh: -87; Mtb hypoxia inh: -1; RN4220 kill: 3.0; Autofluor counter: 3072; Sa ugtP lethal: -3; Mtb hypoxia inh growth: 19

How did OCCN(CCO)c1ncnc2c1oc1ccc(Br)cc12 do in these assays?
PrP UTR inh: 11; Mtb hypoxia inh: -7; RN4220 kill: -2.5; Autofluor counter: 11310; Sa ugtP lethal: -7; BJeLR viability: 2; Mtb hypoxia inh growth: -2

What do the screens show for `CCC(C)C(=O)Nc1nnc(SCC(=O)N2C(C)CCCC2C)s1` (stereo not given)?
PrP UTR inh: -10; Mtb hypoxia inh: 2; RN4220 kill: 6.6; Autofluor counter: 3064; Sa ugtP lethal: 7; BJeLR viability: 1; Mtb hypoxia inh growth: -6

What do the screens show for `Cc1ccc(-c2noc(Cn3cc(S(=O)(=O)N4CCCC4)ccc3=O)n2)cc1`?
PrP UTR inh: -20; Mtb hypoxia inh: 3; RN4220 kill: 1.1; Autofluor counter: 4039; Sa ugtP lethal: 3; Mtb hypoxia inh growth: -13

How did CCOC(=O)c1nn(-c2ccc(F)cc2)c(=O)cc1OCC(=O)Nc1ccc(OCC)cc1 do in these assays?
PrP UTR inh: -9; Mtb hypoxia inh: 5; RN4220 kill: 0.5; Autofluor counter: 5260; Sa ugtP lethal: -2; BJeLR viability: -7; Mtb hypoxia inh growth: 1

Results for Cc1cc(C)n(C(=O)C(C#N)=NNc2ccccc2[N+](=O)[O-])n1 ?
Mtb hypoxia inh: 9; RN4220 kill: 2.9; Sa ugtP lethal: 5; Mtb hypoxia inh growth: 9

Results for CCOC(=O)c1c(S(=O)(=O)N2CCCC2)c(C)n(C)c1C ?
PrP UTR inh: 11; Mtb hypoxia inh: -4; RN4220 kill: 3.4; Autofluor counter: 3609; Sa ugtP lethal: 10; BJeLR viability: -6; Mtb hypoxia inh growth: -13

Results for CC(C)(C)c1ccc(C(CC(=O)O)NC(=O)CSc2ccccc2)cc1 (stereo not given) ?
PrP UTR inh: -19; Mtb hypoxia inh: 3; RN4220 kill: 8.8; Autofluor counter: 3401; Sa ugtP lethal: 6; BJeLR viability: 4; Mtb hypoxia inh growth: 1

Results for CC(=O)N1CCN(c2ccc(NC(=O)c3cccc(Cl)c3)cc2)CC1 ?
PrP UTR inh: -34; Autofluor counter: 2810; BJeLR viability: 2

How did CCOC(=O)C(C)(C)N(Cc1ccccc1C)S(=O)(=O)c1ccc(Cl)c([N+](=O)[O-])c1 do in these assays?
PrP UTR inh: -28; Mtb hypoxia inh: 4; RN4220 kill: 3.9; Autofluor counter: 2446; Sa ugtP lethal: 32; BJeLR viability: -8; Mtb hypoxia inh growth: 0

What do the screens show for `CCN(CC(=O)NCc1cccs1)C(=O)c1ccc(NS(=O)(=O)c2cccc([N+](=O)[O-])c2)cc1`?
PrP UTR inh: -22; Mtb hypoxia inh: 9; RN4220 kill: 0.9; Autofluor counter: inconclusive; Sa ugtP lethal: 5; BJeLR viability: -3; Mtb hypoxia inh growth: 8

What do the screens show for `O=C(c1cccc(OC(F)F)c1)N1CCN(c2ncccn2)CC1`?
PrP UTR inh: -6; Mtb hypoxia inh: 3; RN4220 kill: -14; Autofluor counter: 3077; Sa ugtP lethal: -2; BJeLR viability: 3; Mtb hypoxia inh growth: -1

Results for C#CCOc1c(Cl)cc(C2C3=C(CCCC3=O)N(CC(=O)O)C3=C2C(=O)CCC3)cc1OC ?
PrP UTR inh: -18; Autofluor counter: 3955; BJeLR viability: -15

Results for O=C(COC(=O)c1nsc(Cl)c1Cl)NC1CCCC1 ?
PrP UTR inh: -3; Mtb hypoxia inh: 0; RN4220 kill: 2.0; Autofluor counter: 5518; Sa ugtP lethal: 4; BJeLR viability: 2; Mtb hypoxia inh growth: 7

What do the screens show for `CON=C(CS(=O)Cc1ccccc1Cl)c1ccc(Cl)cc1Cl` (stereo not given)?
Mtb hypoxia inh: 3; RN4220 kill: 5.8; Sa ugtP lethal: -10; Mtb hypoxia inh growth: 2

How did CCN(CC(=O)Nc1c(F)cccc1F)C(=O)/C=C/c1ccc(S(=O)(=O)N2CCCCCC2)cc1 do in these assays?
PrP UTR inh: 15; Mtb hypoxia inh: -4; RN4220 kill: 1.0; Autofluor counter: 4294; Sa ugtP lethal: 2; BJeLR viability: 4; Mtb hypoxia inh growth: -4

What do the screens show for `Cc1ccc(-n2nc3cc(C)c(NC(=O)c4cccnc4)cc3n2)cc1`?
PrP UTR inh: -25; Mtb hypoxia inh: 8; RN4220 kill: 2.0; Autofluor counter: 3244; Sa ugtP lethal: -3; BJeLR viability: 2; Mtb hypoxia inh growth: 0

What do the screens show for `O=C(COc1ccc(/C=N/NC(=O)c2ccccc2O)cc1)Nc1ccc([N+](=O)[O-])cc1`?
PrP UTR inh: -34; Autofluor counter: 9396; BJeLR viability: -2

How did CC(=O)c1cc(C#N)c(SCC(=O)OC(C)(C)C)nc1C do in these assays?
PrP UTR inh: -10; RN4220 kill: 0.5; Autofluor counter: 5740; Sa ugtP lethal: -3; BJeLR viability: 4

How did O=C(Cc1ccccc1)NCCC1=CCCCC1 do in these assays?
PrP UTR inh: -21; Mtb hypoxia inh: 12; RN4220 kill: 3.1; Autofluor counter: 2088; Sa ugtP lethal: -2; BJeLR viability: 5; Mtb hypoxia inh growth: 1

What do the screens show for `O=C(CCCCCNC(=O)N1CCn2c1nc1ccccc12)N[C@@H](C(=O)O)c1ccccc1`?
PrP UTR inh: -22; RN4220 kill: 3.2; Autofluor counter: 5260; Sa ugtP lethal: 4; BJeLR viability: 14

How did Cc1cc(NC(=O)CSc2nnnn2-c2ccc(C)c(C)c2)no1 do in these assays?
PrP UTR inh: -30; Mtb hypoxia inh: 5; RN4220 kill: 2.1; Autofluor counter: 4395; Sa ugtP lethal: -5; BJeLR viability: 5; Mtb hypoxia inh growth: -3

How did COc1ccc(Nc2nc(-c3ccccc3)c3ccccc3n2)cc1 do in these assays?
PrP UTR inh: -71; Mtb hypoxia inh: 7; RN4220 kill: 3.0; Autofluor counter: 2585; Sa ugtP lethal: 8; BJeLR viability: 8; Mtb hypoxia inh growth: 11

What do the screens show for `CC(C)(C)OC(=O)COc1cc(F)ccc1[N+](=O)[O-]`?
PrP UTR inh: -21; Mtb hypoxia inh: 6; RN4220 kill: -15; Autofluor counter: 3761; Sa ugtP lethal: -1; Mtb hypoxia inh growth: 16

What do the screens show for `Nn1cnnc1NN=Cc1ccccc1C(F)(F)F`?
Mtb hypoxia inh: 17; RN4220 kill: 4.2; Sa ugtP lethal: 3; Mtb hypoxia inh growth: 8

What do the screens show for `CC(C)C(C(=O)Nc1cccnc1)N1C(=O)c2ccccc2C1=O` (stereo not given)?
PrP UTR inh: -25; Mtb hypoxia inh: 4; RN4220 kill: 3.0; Sa ugtP lethal: 6; BJeLR viability: -5; Mtb hypoxia inh growth: 14

5 entries already listed, arranged by molecular weight, low to high:
How did Cc1cccc(NC(=O)C2COc3ccccc3O2)n1 (stereo not given) do in these assays?
PrP UTR inh: -41; Mtb hypoxia inh: 2; RN4220 kill: -0.3; Autofluor counter: 5987; Sa ugtP lethal: 10; BJeLR viability: -4; Mtb hypoxia inh growth: 2

Results for Cc1cc(C)n(C(=O)C(C#N)=NNc2ccccc2[N+](=O)[O-])n1 ?
Mtb hypoxia inh: 9; RN4220 kill: 2.9; Sa ugtP lethal: 5; Mtb hypoxia inh growth: 9

How did Cc1cc(NC(=O)CSc2nnnn2-c2ccc(C)c(C)c2)no1 do in these assays?
PrP UTR inh: -30; Mtb hypoxia inh: 5; RN4220 kill: 2.1; Autofluor counter: 4395; Sa ugtP lethal: -5; BJeLR viability: 5; Mtb hypoxia inh growth: -3

How did CC(C)(C)S(=O)N1Cc2cc(=O)n(Cc3ccccc3)cc2[C@@H]1CCO (stereo not given in full) do in these assays?
PrP UTR inh: 2; Mtb hypoxia inh: -10; RN4220 kill: 1.4; Autofluor counter: 3959; Sa ugtP lethal: 0; Mtb hypoxia inh growth: 2

How did CCOC(=O)c1nn(-c2ccc(F)cc2)c(=O)cc1OCC(=O)Nc1ccc(OCC)cc1 do in these assays?
PrP UTR inh: -9; Mtb hypoxia inh: 5; RN4220 kill: 0.5; Autofluor counter: 5260; Sa ugtP lethal: -2; BJeLR viability: -7; Mtb hypoxia inh growth: 1

This is a random part of the collection, and some 4% of all compounds hit somewhere here.
